Compound activity from PubChem.
NPYLR7 agonist – activates Aedes aegypti NPYLR7 receptor. HEK293T NPYLR7/Galpha15, GCaMP6s calcium fluorescence. activation, % at 10 µM. actives 0.15% (n = 270,000). AID 1259423; in the data active means activation above about 40%;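 further: 0% = vehicle and 100% = reference agonist at the receptor; some compounds past the cut are filed as inactive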
NPYLR7 agonist max-min – also measured in NPYLR7 agonist; calls as there; activation, %; measured here: Max-Min RFU normalised activation; some inactives read as strong as hits;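 span of the calcium signal over five minutes; 0% = vehicle and 100% = native peptide agonist; compound fluorescence can raise it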
The depositor's hits bear a star; & = joins results of further samples. A portion of the library; count on the stated rates, not on these rows.

Sample of the layout, five compounds:
smiles	NPYLR7 agonist	NPYLR7 agonist max-min
CC(C)Cn1c(N2CCN(Cc3ccc(Cl)cc3Cl)CC2)nc2c1c(=O)[nH]c(=O)n2C	-6.4	-6.1
C#CCN1CCCCC1C(=O)Nc1nc2c(s1)CN(Cc1ccccc1)CC2 (stereo unspecified)	0.0	8.9
CC(C)c1nccn1CCCNC(=O)c1ccc(N2CC=CC2)nc1	4.1	1.4
C=CCNc1nc(C2(C)CC3(CC(COCCC(C)C)OC3=O)C(=O)O2)cs1 (stereo unspecified)	0.4	1.6
Fc1ccc(SCCc2ccncc2)cc1	2.2	0.5

The list itself, previewed entries included:
smiles	NPYLR7 agonist	NPYLR7 agonist max-min
CC(C)Cn1c(N2CCN(Cc3ccc(Cl)cc3Cl)CC2)nc2c1c(=O)[nH]c(=O)n2C	-6.4	-6.1
C#CCN1CCCCC1C(=O)Nc1nc2c(s1)CN(Cc1ccccc1)CC2 (stereo unspecified)	0.0	8.9
CC(C)c1nccn1CCCNC(=O)c1ccc(N2CC=CC2)nc1	4.1	1.4
C=CCNc1nc(C2(C)CC3(CC(COCCC(C)C)OC3=O)C(=O)O2)cs1 (stereo unspecified)	0.4	1.6
Fc1ccc(SCCc2ccncc2)cc1	2.2	0.5
O=C1C(=Cc2ccccc2)CCC1=C1SCCS1	10.3	8.0
COc1ccc(C2c3cccn3CCCN2Cc2ccco2)cc1OC (stereo unspecified)	4.8	0.3
COc1ccccc1C(C)N(C)Cc1nc(COc2ccccc2)no1 (stereo unspecified)	21.8	10.1
CN1CCN(CCn2cnc(-c3ccccc3)c2-c2cnc[nH]2)CC1	10.7	7.7
Nc1c(Cl)cc(C23CC4CC(CC(C4)C2)C3)cc1Cl	-9.1	-11.8
COC(=O)C1C(=O)CSC1=Nc1cccc(Cl)c1 (stereo unspecified)	-2.0	6.5
Cc1nc2n(n1)C(=O)C(C(c1ccccc1C)N1CCC(C(N)=O)CC1)S2 (stereo unspecified)	-4.3	-10.7
Cc1ccc(Cn2cnc3c(nnn3Cc3ccc(C)cc3)c2=O)cc1	5.3	8.3
CCCCNC(=O)CC(c1ccc(C)cc1)c1c[nH]c2ccccc12 (stereo unspecified)	-0.3	7.3
CN(CCCNC(=O)c1ccc(SC(F)(F)F)cc1)c1ccccc1	-14.2	-16.9
Cc1nc(CS(=O)(=O)Cc2ccc(C(F)(F)F)cc2)cs1	8.1	5.3
Cc1ccccc1N1CCN(C2CCCN(C(=O)CCc3scnc3C)C2)CC1 (stereo unspecified)	5.4&2.3	2.0&0.3
COc1ccc(C2=NOC(CN(Cc3cccc(F)c3)C(=O)C3CCCC3)C2)cc1 (stereo unspecified)	19.8	28.5
CCOC(=O)c1nc2ccccc2nc1N1CCN(C(=O)N2CCOCC2)CC1	51.7*	48.9*
Cc1nc2ccc(Cl)cn2c(=O)c1NC(=O)CC(c1ccccc1)c1ccccc1	2.7	1.1
CC(=O)NCc1ccc(-c2csc(NC(=O)c3cc(C)on3)n2)s1	1.1	2.1
CCN1CCc2c(sc(NC(=O)COc3ccccc3)c2-c2nc3ccccc3s2)C1	52.6*	50.0*
CC1CCN(S(=O)(=O)c2ccc(C(=O)N(CC(=O)Nc3ccccc3)Cc3ccco3)cc2)CC1	-1.5	0.5
CCc1cc(-c2[nH]ncc2-c2nc(C)cs2)c(O)cc1O	-9.0	-16.4
O=C(c1cccc2c1OCCO2)N1CC[C@@H](c2ccc3c(c2)OCO3)[C@H](O)C1	3.8	1.8
O=C(Nc1ccccc1Br)N(CC(=O)N1c2ccccc2-n2cccc2C1c1ccco1)C1CC1 (stereo unspecified)	-6.6	2.1
O=c1[nH]nc(C2CCCN(CCc3ccccc3)C2)n1-c1ccccc1 (stereo unspecified)	-1.6	-1.5
Cc1ccc(Oc2ncccc2CNC(=O)CCc2cnccn2)cn1	-0.5	0.0
COc1ccc(CC(=O)N2CCOC(COc3cccc(C(F)(F)F)c3)C2)c(OC)c1OC (stereo unspecified)	3.8	-0.7
COC(=O)c1sc2nc(/C(Cl)=C/c3ccc4c(c3)OCCO4)[nH]c(=O)c2c1C	0.7	-0.3
CC(=O)Nc1ccc(S(=O)(=O)NCCc2csc3nc(-c4ccc(Cl)cc4)nn23)cc1	-9.4	-10.0
O=S(=O)(NCCc1cccnc1)c1cccc2nsnc12	1.5	-0.1
CCOC(=O)C1CCN(C(=O)c2cccnc2Nc2cc(Cl)cc(Cl)c2)CC1	2.2	1.7
Cc1cccc(C)c1NC(=O)CN1CCN(c2ccc(-c3cnn(C)c3)nn2)CC1	-18.2	-17.1
CC(C1CC1)N(C1CC1)S(=O)(=O)c1ccc(F)cc1F (stereo unspecified)	1.7	-0.3
CC(C)c1cccc(NC(=O)Cn2cnc3c2c(=O)n(C)c(=O)n3C)c1	2.6	2.1
CC1(C(=O)NS(C)(=O)=O)CCN1C(=O)Cc1cccs1 (stereo unspecified)	-0.9	-0.4
COc1ccc(C2N=C3CCCC3C3(C#N)C(OC)(OC)N=C(N)C23C#N)cc1 (stereo unspecified)	16.6	5.5
O=c1oc2ccc3ccccc3c2cc1-c1nnc(Nc2ccc(Cl)cc2Cl)s1	-11.7	-15.4
CC(=O)Nc1cccc(/C(C)=N\NC(=O)CN(c2cc(Cl)cc(Cl)c2)S(C)(=O)=O)c1	7.1	6.5
CCn1nc(C(=O)N(CCN2CCOCC2)c2nc3ccc(OC)cc3s2)cc1C	-0.4	-1.9
Cc1cc2c(o1)CC(C)(C)CC2NC(=O)c1cnn(C(C)(C)C)c1C(F)(F)F (stereo unspecified)	1.4	15.0
O=C(CC1(O)C(=O)Nc2ccc(Cl)cc21)c1ccc2c(c1)OCCO2 (stereo unspecified)	0.3	-2.3
COc1c(F)ccc(F)c1C(=O)Nc1cccc(CC(=O)O)c1	8.2	7.3
O=C(N[C@@H]1CCCCC1NC(=O)C1CCN(C(=O)/C=C/c2ccc([N+](=O)[O-])cc2)CC1)c1ccccc1 (stereo partly specified)	24.2	20.9
CN(C)CCc1c[nH]c2ccc(CS(=O)(=O)N3CCCC3)cc12	-9.4	-10.0
CC1CCc2[nH]nc(C(=O)N3CC(c4ccncc4)C3)c2C1 (stereo unspecified)	12.3	11.0
C=CCOC(C)C(=O)N1CCCC2(CCCCCC2)C1 (stereo unspecified)	1.2	0.3
COc1cccc(C(=O)NC(Cc2ccccc2)C(=O)Nc2nnc(-c3ccc(N(C)C)cc3)s2)c1 (stereo unspecified)	10.4	12.4
O=C(c1cc(-c2ccco2)nn1-c1ccccc1Cl)N1CCN(C(c2ccccc2)c2ccccc2)CC1	-4.5	7.3
C=CCN(C(=O)C1CSC2(C)CCC(=O)N12)c1nc2c(s1)CCCC2 (stereo unspecified)	4.2	0.0
CSc1nc(CN(C)Cc2ccccc2Cl)cc(=O)[nH]1	-8.2	-11.7
O=C(NC(Cc1ccccc1)c1ccccc1)c1cc2n(n1)CCN(Cc1cccc(C(F)(F)F)c1)C2=O (stereo unspecified)	-1.7	2.4
CCCCOc1cc(CC2CNC(=O)N2)ccc1OC (stereo unspecified)	-9.6&7.4	-9.1&-9.5
CCN(CC)C(=O)CSc1nc(-c2ccc(OC)cc2)nc2c1Cc1c(CO)cnc(C)c1O2	11.1	15.7
CC(C(=O)N1CCN(c2ncccn2)CC1)n1nc(-c2cccs2)ccc1=O (stereo unspecified)	-1.5	-5.4
O=C1CN(Cc2ccn(C3CCCC3)n2)CCN1C1CC1	2.5	3.1
Cc1csc(NC(=O)C2(c3cccs3)CCOCC2)n1	-14.1	-6.2
CC(C)c1ccc(NC=C2C(=O)OC(C)(C)OC2=O)cc1	2.5	2.0
CCOC(=O)Cn1c(=O)c2c(nc3n(-c4cc(C)ccc4C)c(C)cn23)n(C)c1=O	5.3	4.6

Arranged by number of heavy atoms (highest first): some entries from above
smiles	NPYLR7 agonist	NPYLR7 agonist max-min
O=C(N[C@@H]1CCCCC1NC(=O)C1CCN(C(=O)/C=C/c2ccc([N+](=O)[O-])cc2)CC1)c1ccccc1 (stereo partly specified)	24.2	20.9
O=C(Nc1ccccc1Br)N(CC(=O)N1c2ccccc2-n2cccc2C1c1ccco1)C1CC1 (stereo unspecified)	-6.6	2.1
O=C(c1cccc2c1OCCO2)N1CC[C@@H](c2ccc3c(c2)OCO3)[C@H](O)C1	3.8	1.8
COc1ccc(C2c3cccn3CCCN2Cc2ccco2)cc1OC (stereo unspecified)	4.8	0.3
O=S(=O)(NCCc1cccnc1)c1cccc2nsnc12	1.5	-0.1
CSc1nc(CN(C)Cc2ccccc2Cl)cc(=O)[nH]1	-8.2	-11.7

Other records.
> Cc1noc(C)c1S(=O)(=O)NC(=O)C1(C)CCN1C(=O)C1(c2ccc(Cl)cc2)CCC1 (stereo unspecified)
  NPYLR7 agonist: 0.7
  NPYLR7 agonist max-min: -2.5
> c1ccc(-c2ncc(CNc3nc4nonc4nc3N3CCOCC3)s2)cc1
  NPYLR7 agonist: 14.3
  NPYLR7 agonist max-min: 4.1
> O=C(NCCc1csc2nc(-c3cccs3)nn12)c1ccc2c(c1)OCO2
  NPYLR7 agonist: -7.7
  NPYLR7 agonist max-min: -7.8
> O=P1(NCC(c2ccc(F)cc2)N2CCOCC2)C=C(c2ccccc2)OC(c2ccccc2)=C1 (stereo unspecified)
  NPYLR7 agonist: -1.1
  NPYLR7 agonist max-min: -2.7
> O=C(NCC1CCCO1)C1CC(=O)N(C2CCCCCC2)C1 (stereo unspecified)
  NPYLR7 agonist: 22.3
  NPYLR7 agonist max-min: 13.6
> COCCCN(CC(=O)N(CCc1ccc(OC)c(OC)c1)Cc1ccco1)C(=O)Nc1cccc(F)c1
  NPYLR7 agonist: -4.4
  NPYLR7 agonist max-min: 4.0
> CCCn1cnnc1CNC(=O)c1csc(-c2cccs2)n1
  NPYLR7 agonist: -7.9
  NPYLR7 agonist max-min: -11.6
> CCC1CN(Cc2cnc(CC3CCCC3)[nH]2)CCN1C(C)C (stereo unspecified)
  NPYLR7 agonist: -4.0
  NPYLR7 agonist max-min: -5.2
> COc1ccc(-n2c3nc4ccccc4nc3c3c(=N)oc(C)nc32)cc1
  NPYLR7 agonist: -15.5
  NPYLR7 agonist max-min: -25.0
> Cc1ccccc1C(=O)Nn1ccc2c(nnc3c(-c4ccc(Cl)cc4)cnn32)c1=O
  NPYLR7 agonist: 19.8
  NPYLR7 agonist max-min: 17.8

> COc1ccc(S(=O)(=O)NCC(c2ccsc2)N2CCN(C)CC2)cc1C (stereo unspecified)
  NPYLR7 agonist: -0.1
  NPYLR7 agonist max-min: -8.1
> CCOC(=O)c1ccc(C#Cc2ccc3c(c2)C(C)(C)CCS3)nc1
  NPYLR7 agonist: -2.0
  NPYLR7 agonist max-min: -9.0
> COc1cccc(C=CC(=O)c2ccc(Cl)c(Cl)c2)c1OC
  NPYLR7 agonist: -1.2
  NPYLR7 agonist max-min: -4.7
> C=CCN(CC(=O)N1CCc2sccc2C1COc1cccc(OC)c1)C(=O)NCCC (stereo unspecified)
  NPYLR7 agonist: -3.3
  NPYLR7 agonist max-min: -2.3
> O=C(c1cn[nH]n1)N1CCN(c2nnc(C(F)(F)F)s2)CC1
  NPYLR7 agonist: 0.1
  NPYLR7 agonist max-min: -9.7
> CCOC(=O)c1c(NC(=O)c2cccc(F)c2)sc(C(=O)Nc2ccccc2C)c1C
  NPYLR7 agonist: -10.6
  NPYLR7 agonist max-min: -16.6
> Cc1cc(C)c2nc(N(CCCN3CCOCC3)C(=O)c3ccco3)sc2c1
  NPYLR7 agonist: -4.6
  NPYLR7 agonist max-min: -6.0
> COCCCC1CCCCN1C(=O)CC(=O)Nc1cc(C)cc(C)c1 (stereo unspecified)
  NPYLR7 agonist: 13.9
  NPYLR7 agonist max-min: 8.8
> COc1cccc(C(=O)N(CC(=O)N2CCc3sccc3C2c2ccc(Cl)cc2Cl)Cc2ccc(F)cc2)c1 (stereo unspecified)
  NPYLR7 agonist: 3.4
  NPYLR7 agonist max-min: 5.5
> Cc1noc(C)c1S(=O)(=O)N1CCN(CC(OCc2c(F)cccc2F)c2ccc(Cl)cc2)CC1 (stereo unspecified)
  NPYLR7 agonist: 19.4
  NPYLR7 agonist max-min: 10.7

Single entries from the list.
O=C1C(=Cc2ccccc2)CCC1=C1SCCS1 @ NPYLR7 agonist max-min = 8.0
Cc1noc(C)c1S(=O)(=O)N1CCN(CC(OCc2c(F)cccc2F)c2ccc(Cl)cc2)CC1 (stereo unspecified) @ NPYLR7 agonist = 19.4

Later entries:
> Cn1c(=O)[nH]c(=O)c2c1nc(N1CCN(CCO)CC1)n2Cc1ccccc1Cl
  NPYLR7 agonist: 2.9
  NPYLR7 agonist max-min: 1.1
> O=C(/C=C/c1ccoc1)N1CCc2ncn3nc(-c4ccco4)nc3c2C1
  NPYLR7 agonist: -2.1
  NPYLR7 agonist max-min: -2.2
> Cc1ccc(-n2ncc3c(C)nnc(SCC(=O)NCc4ccc5c(c4)OCO5)c32)cc1C
  NPYLR7 agonist: -9.2
  NPYLR7 agonist max-min: -15.4
> Cc1cccc(NC(=O)C(C2CCCC2)N2CCN(C(=O)C3CCC3)CC2)c1 (stereo unspecified)
  NPYLR7 agonist: -0.5
  NPYLR7 agonist max-min: 7.9

As a working copy, part of the list above.
> Cc1noc(C)c1S(=O)(=O)N1CCN(CC(OCc2c(F)cccc2F)c2ccc(Cl)cc2)CC1 (stereo unspecified)
  NPYLR7 agonist: 19.4
  NPYLR7 agonist max-min: 10.7
> Cn1c(=O)[nH]c(=O)c2c1nc(N1CCN(CCO)CC1)n2Cc1ccccc1Cl
  NPYLR7 agonist: 2.9
  NPYLR7 agonist max-min: 1.1
> O=C(/C=C/c1ccoc1)N1CCc2ncn3nc(-c4ccco4)nc3c2C1
  NPYLR7 agonist: -2.1
  NPYLR7 agonist max-min: -2.2
> Cc1ccc(-n2ncc3c(C)nnc(SCC(=O)NCc4ccc5c(c4)OCO5)c32)cc1C
  NPYLR7 agonist: -9.2
  NPYLR7 agonist max-min: -15.4
> Cc1cccc(NC(=O)C(C2CCCC2)N2CCN(C(=O)C3CCC3)CC2)c1 (stereo unspecified)
  NPYLR7 agonist: -0.5
  NPYLR7 agonist max-min: 7.9
